Mtb hypoxia rep: reduces hypoxia-regulated biosensor signal in M. tuberculosis; M. tuberculosis hypoxia-regulated fluorescent reporter, fluorescence; fluorescence inhibition, % (test concentration not listed); 300,000 compounds, 0.1% hits;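 active = 35 to 45% if threefold the growth effect, above 45% if 1.5-fold the growth effect; inactive = the rest, general growth blockers included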;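 also: wells of about 50 µL received 100 nL stock; 0% = vehicle wells and 100% = reference inhibitor wells; whole bacteria with a GFP reporter of the hypoxia response; strong numbers were not always called active; many hits fall short of the cut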
PrP 5UTR inh: inhibition of PrP 5' UTR reporter expression; cell-based PrP 5' UTR mRNA reporter, plate reader; inhibition, % (concentration not given with the values); 340,000 compounds, 0.35% hits;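 active = every replicate at 50% or more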;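 also: 0 = median of the neutral control wells; tested in H4 reporter cells; numbers are from one replicate; inactives centre near -14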
Sa RN4220 lethal: S. aureus RN4220 growth inhibition; OD600, 16 h; inhibition, % (concentration not given with the values); 330,000 compounds, 0.33% hits; AID 1259311;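 active = z-score of -3 or lower and OD600 up to 0.18 on both plates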;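 also: plate controls were untreated cells for no effect and reference antibiotic for full effect; stock transfer was 100 nL into about 80 µL; one replicate is shown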
Autofluor counter: counter-screen for toxin protease inhibitors: compound fluorescence. compound autofluorescence counterscreen, microsphere flow cytometry; hits give high values. fluorescence intensity (test concentration not listed). 360,000 compounds, 3.1% hits;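 active = at least 3 SD above the mean of all compounds, about 16000 in these data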;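 also: 100 nL of 1 mM stock went into each well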
ugtP null kill: growth inhibition of S. aureus ugtP deletion strain; S. aureus RN4220 ugtP deletion, OD600 growth, 16 h; some inactives read as strong as hits; growth inhibition, % (no concentration beside the values); 330,000 compounds, 0.54% hits; AID 1259309;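 active = z-score under -3 and OD600 up to 0.15 on both plates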;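 also: plate controls were untreated wells for no effect and antibiotic for full effect; wells of about 80 µL received 100 nL stock; the first replicate is given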
BJeLR viability: BJeLR cell viability loss; BJeLR (HRASV12) viability, CellTiter-Glo ATP luminescence, 48 h; reference of the scale not given here; inhibition, % (concentration not given with the values); 300,000 compounds, 0.17% hits; AID 1554;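 active = replicate mean above 50%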;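 also: 50 nL library stock added to about 25 µL; numbers are from one replicate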
Mtb hypoxia rep growth: second read-out of Mtb hypoxia rep, no call of its own (marks repeat the call); growth inhibition, %; measured here: M. tuberculosis growth (absorbance);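 0% = vehicle and 100% = reference antibiotic; read after six days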
The depositor's hits bear a star; . = not tested or not shown.

A first look (2 entries):
no.	SMILES	Mtb hypoxia rep	Mtb hypoxia rep growth	PrP 5UTR inh	Sa RN4220 lethal
1	CCOC(=O)N1CCC(N(CCN(C)C)C(=S)Nc2cccc(Cl)c2C)CC1	9	-5	-22	-1.4
2	CCC1CN(C(=O)N2CCC(C(=O)NCc3ccccc3OC)CC2)c2ccccc2O1 (centres undefined)	-4	4	-12	-0.3

no.	Autofluor counter	ugtP null kill	BJeLR viability
1	2483	3	-5
2	5839	-1	1

The whole of this part (from the top)
no.	SMILES	Mtb hypoxia rep	Mtb hypoxia rep growth	PrP 5UTR inh	Sa RN4220 lethal
1	CCOC(=O)N1CCC(N(CCN(C)C)C(=S)Nc2cccc(Cl)c2C)CC1	9	-5	-22	-1.4
2	CCC1CN(C(=O)N2CCC(C(=O)NCc3ccccc3OC)CC2)c2ccccc2O1 (centres undefined)	-4	4	-12	-0.3
3	CCCCCOC(=O)CSc1nc2c(c(=O)[nH]c(=O)n2C)n1CCc1ccccc1	.	.	-18	-0.4
4	Cc1ccc(C(=O)NCC(c2cccs2)N(C)C)cc1S(=O)(=O)N1CCOCC1 (centres undefined)	7	3	-17	2.9
5	CCOc1ccc2nc(SCc3ccc(CC(=O)O)cc3)c(C#N)cc2c1	3	11	-13	19
6	CC(=O)OCC1OC(OC2C[C@]3(C)C(CC(O)C4C([C@](C)(CCC=C(C)C)OC5OC(CO)C(O)C(O)C5O)CC[C@]43C)[C@@]3(C)CCC(O)C(C)(C)C23)C(O[C@@H]2OC(C)C(O)C(O)C2O)C(O)C1O (some centres undefined)	-2	0	-50	5.2
7	COc1ccc(CCNC(=O)c2c(O)c3cccc4c3n(c2=O)CC4)cc1OC	6	3	-22	4.2
8	COc1cc(OC)nc(NC(=O)CS(=O)(=O)c2ccccc2)n1	18	7	-21	-14
9	CCc1[nH]nc2c1C1(CCN(C(=O)c3ccccc3)CC1)C(C#N)=C(N)O2	7	1	-34	2.9
10	CCCCn1c(=O)[nH]c(=O)c2c1nc(-c1ccccc1OC(F)F)n2C	13	9	-5	1.8
11	COCCC(=O)N1CCCC(C(=O)c2ccc3c4c(cccc24)CC3)C1 (centres undefined)	2	1	-15	5.1
12	O=C(c1cc([N+](=O)[O-])ccc1N1CCOCC1)N1CCCC1	3	3	-1	2.1
13	CC1=C(C)C(O)N(Cc2ccccc2)C1=O (centres undefined)	-2	-4	-34	1.9
14	Cc1cccc(NC2=NCC(=O)N2Cc2ccccc2)c1	.	.	-6	-3.9
15	CCOc1ccccc1NS(=O)(=O)c1ccc(-c2cnc(C3CC3)o2)cc1	6	-4	45	13

no.	Autofluor counter	ugtP null kill	BJeLR viability
1	2483	3	-5
2	5839	-1	1
3	4294	0	4
4	4160	1	.
5	2219	53	0
6	2867	6	.
7	2345	2	8
8	2349	-6	9
9	7976	1	-12
10	3747	7	7
11	2437	-3	-5
12	2661	3	1
13	3755	8	-1
14	4570	0	-2
15	4885	-6	-2

Individual results from above.
Mtb hypoxia rep, CCOc1ccccc1NS(=O)(=O)c1ccc(-c2cnc(C3CC3)o2)cc1 is entered as 6
Autofluor counter, O=C(c1cc([N+](=O)[O-])ccc1N1CCOCC1)N1CCCC1 is entered as 2661
BJeLR viability, COCCC(=O)N1CCCC(C(=O)c2ccc3c4c(cccc24)CC3)C1 (centres undefined) is entered as -5

(continued)
no.	SMILES	Mtb hypoxia rep	Mtb hypoxia rep growth	PrP 5UTR inh	Sa RN4220 lethal
16	O=C(NCCN1CCOCC1)c1ccccc1OCc1ccccc1	-9	2	-32	-0.8
17	Cc1ccc(SCCSc2nc(N)cc(=O)[nH]2)cc1	4	10	-13	6.5
18	Cc1nn(CC(=O)c2ccccc2Cl)c(C)c1[N+](=O)[O-]	2	12	-28	6.7
19	O=[N+]([O-])c1cccc(-c2ccc3nnc(SCc4cccnc4)n3n2)c1	2	1	-2	1.9
20	Cc1ccc(C(=O)OCC(=O)NCc2cccs2)cc1	-13	7	-2	3.8
21	CSc1ccccc1C(=O)N1CCC2(CC1)CC(=O)c1ccccc1O2	5	6	-22	5.8
22	COc1ccc(CN2C3CCCC2CC(NC(=O)Nc2ccccc2C)C3)cc1 (centres undefined)	11	9	-17	3.5
23	CN(C)S(=O)(=O)c1ccc(SCC(=O)Nc2cccc(S(=O)(=O)N3CCCC3)c2)nc1	-2	-3	-18	1.8
24	COc1cc(Br)cc(C=Nc2cccc(C(F)(F)F)c2)c1O	16	6	-6	9.3
25	O=C(O)c1cc(N2CCCCC2)nc2ccccc12	6	2	.	2.7
26	COC(=O)CNC(=O)CN1C(=O)N(c2cccc(Cl)c2)C(N(O)C(=O)Nc2cccc(Cl)c2)C1(C)C (centres undefined)	.	.	-12	-0.2
27	CCN(CC)c1ccc(/C=N/NC(=O)CNC(=O)c2ccccn2)cc1	.	.	-15	.
28	NC(=O)C1CN(C(=O)c2nn(Cc3ccccc3)c(=O)c3ccccc23)c2ccccc2O1 (centres undefined)	-3	-1	-4	-7.4
29	CC(C)Nc1nnc(SC(C)C(=O)NCc2ccc3c(c2)OCO3)s1 (centres undefined)	6	-3	-14	5.2
30	O=C1c2cc(Cl)ccc2OC2(CCNCC2)C12CC(c1ccc(Cl)cc1)=NO2 (centres undefined)	13	9	-9	-9.2

no.	Autofluor counter	ugtP null kill	BJeLR viability
16	3757	-3	.
17	4010	2	0
18	4785	9	4
19	5740	8	.
20	2024	13	3
21	6300	-1	-3
22	4333	3	-1
23	8806	-6	.
24	2475	22	4
25	2937	2	.
26	2450	-2	9
27	2867	.	1
28	5840	-11	.
29	2216	7	-3
30	4121	-11	3

The list continues.
no.	SMILES	Mtb hypoxia rep	Mtb hypoxia rep growth	PrP 5UTR inh	Sa RN4220 lethal
31	CCN(CC)S(=O)(=O)c1ccc(N/N=C(\C)c2ccc(OC)cc2O)nc1	.	.	16	.
32	Cc1cc(C)n(-c2nnc(C)n2N=Cc2ccco2)n1	4	1	.	5.7
33	COc1ccccc1NC(=O)c1ccc(NC(=O)C2CC2C)cc1 (centres undefined)	6	17	-4	-1.7
34	CC(C)(C)OC(=O)CN1C(=O)C(Sc2n[nH]c(-c3ccccc3)n2)CCc2ccccc21 (centres undefined)	18	3	-20	4.4
35	COCCn1nnnc1C(c1ccccc1Cl)N1CCN(c2ccccc2OC)CC1 (centres undefined)	.	.	-16	3.4
36	CSc1cccc(CN2CCN(Cc3ccccc3)C(CCO)C2)c1 (centres undefined)	2	-6	-9	3.0
37	COc1ccc(-c2nc(N=Nc3ccc(O)cc3)n[nH]2)cc1	-1	2	-14	2.1
38	CC1=C(C(=O)Nc2ccccn2)C(c2ccc(F)cc2)n2ncnc2N1 (centres undefined)	-1	-16	-3	-0.1
39	CC(C)(C)C(=O)C1=C(O)C(=O)N(Cc2ccccc2)C1c1ccccc1F (centres undefined)	-7	4	-17	5.8
40	NC(=O)c1nsc(C(=O)N(Cc2ccco2)C(C(=O)NCc2ccc(F)cc2)c2ccc(O)cc2)c1N (centres undefined)	-6	-4	5	1.0
41	O=C(CSc1nnc(-c2ccccn2)n1Cc1ccccc1)N1CCCC1	10	11	-23	-1.4
42	Cc1ccc(N2C(=O)NC(=O)/C(=C/C=C/c3ccco3)C2=O)cc1	11	4	-25	4.5
43	CN(CC(=O)Nc1ccc(Cl)c(Cl)c1)C(=O)C12CC3CC(CC(C3)C1)C2	-10	5	-6	4.4
44	CC1(C)C(C(=O)OCC(Cl)(Cl)Cl)N2C(=O)C(NC(=O)Cc3ccccc3)C2S1=O (centres undefined)	7	1	-21	67
45	COCCCNC(=O)C1=CCN(S(=O)(=O)c2ccc(C)cc2)CC1	-4	0	2	3.1

no.	Autofluor counter	ugtP null kill	BJeLR viability
31	3477	.	7
32	.	-1	.
33	7831	-2	.
34	12851	0	-6
35	2187	1	-1
36	2666	7	-1
37	9469	-13	-7
38	7304	3	-4
39	3751	8	-5
40	3544	-3	-10
41	4872	0	-18
42	2096	2	9
43	2108	-12	-1
44	4048	35	-17
45	5733	6	8

Three compounds from above, arranged by length of the SMILES, lowest first:
no.	SMILES	Mtb hypoxia rep	Mtb hypoxia rep growth	PrP 5UTR inh	Sa RN4220 lethal
41	O=C(CSc1nnc(-c2ccccn2)n1Cc1ccccc1)N1CCCC1	10	11	-23	-1.4
45	COCCCNC(=O)C1=CCN(S(=O)(=O)c2ccc(C)cc2)CC1	-4	0	2	3.1
38	CC1=C(C(=O)Nc2ccccn2)C(c2ccc(F)cc2)n2ncnc2N1 (centres undefined)	-1	-16	-3	-0.1

no.	Autofluor counter	ugtP null kill	BJeLR viability
41	4872	0	-18
45	5733	6	8
38	7304	3	-4

Additional compounds follow.
no.	SMILES	Mtb hypoxia rep	Mtb hypoxia rep growth	PrP 5UTR inh	Sa RN4220 lethal
46	CCOC(=O)C(=NNc1ccc(Cl)cc1)S(=O)(=O)c1ccc(Cl)cc1	-5	-1	.	20
47	COC(C(=O)Nc1ccc(S(=O)(=O)N2CCCCC2)cc1)c1ccccc1 (centres undefined)	5	-3	3	4.1
48	CCc1cccc(NC(=O)CS(=O)Cc2nc(-c3ccc(C)cc3)oc2C)c1 (centres undefined)	3	13	-16	-15
49	Cn1c(=O)n(C)c2cc([N+](=O)[O-])c(N3CCN(C(=O)c4ccccc4Br)CC3)cc21	-1	9	-15	17
50	CNC(=O)CSc1nnc(-c2ccc(S(=O)(=O)N3CCCC3)cc2)n1-c1cccc(C)c1C	9	4	-19	3.3
51	CC(C)OC(=O)c1cccc(C(=O)Nc2cccc(NC(=O)c3cccc(C(=O)OC(C)C)n3)n2)n1	-17	-6	-10	1.3
52	CSc1nc2ccccc2nc1N(C)S(=O)(=O)c1ccc(C)cc1	15	10	-11	8.8
53	O=C(O)C1C2CCC(C2)C1C(=O)NCCCn1ccnc1 (centres undefined)	8	9	-18	-7.0
54	Cn1cccc1C(=O)OCC(=O)NNC(=O)c1ccc([N+](=O)[O-])cc1	4	-3	.	5.0
55	O=C(Nc1cccnc1)c1cc(-c2ccc3c(c2)OCO3)on1	7	4	.	2.3
56	COc1cc(CN2CCC(n3nccc3NC(=O)c3ccc4c(c3)OCO4)CC2)ccc1O	7	3	2	1.4

no.	Autofluor counter	ugtP null kill	BJeLR viability
46	.	15	.
47	7920	6	2
48	5274	-8	-8
49	2498	-2	5
50	4192	14	2
51	2379	-6	-5
52	5017	9	11
53	2336	3	-5
54	.	11	.
55	8143	-5	-5
56	4760	3	-1

Source: PubChem (several laboratories)
